Screens as filed in PubChem.
PKD1 inh = inhibitors of human PKD1 kinase | Q15139 | PKD1 kinase fluorescence polarization assay | inhibition, %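 (about 10 µM by stock and volumes)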 | 200,000 compounds, 0.056% hits;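 active means inhibition of 50% or more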;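 further: controls were vehicle for no effect and a reference inhibitor for full effect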
Target sequence (Q15139 whole entry, looked up): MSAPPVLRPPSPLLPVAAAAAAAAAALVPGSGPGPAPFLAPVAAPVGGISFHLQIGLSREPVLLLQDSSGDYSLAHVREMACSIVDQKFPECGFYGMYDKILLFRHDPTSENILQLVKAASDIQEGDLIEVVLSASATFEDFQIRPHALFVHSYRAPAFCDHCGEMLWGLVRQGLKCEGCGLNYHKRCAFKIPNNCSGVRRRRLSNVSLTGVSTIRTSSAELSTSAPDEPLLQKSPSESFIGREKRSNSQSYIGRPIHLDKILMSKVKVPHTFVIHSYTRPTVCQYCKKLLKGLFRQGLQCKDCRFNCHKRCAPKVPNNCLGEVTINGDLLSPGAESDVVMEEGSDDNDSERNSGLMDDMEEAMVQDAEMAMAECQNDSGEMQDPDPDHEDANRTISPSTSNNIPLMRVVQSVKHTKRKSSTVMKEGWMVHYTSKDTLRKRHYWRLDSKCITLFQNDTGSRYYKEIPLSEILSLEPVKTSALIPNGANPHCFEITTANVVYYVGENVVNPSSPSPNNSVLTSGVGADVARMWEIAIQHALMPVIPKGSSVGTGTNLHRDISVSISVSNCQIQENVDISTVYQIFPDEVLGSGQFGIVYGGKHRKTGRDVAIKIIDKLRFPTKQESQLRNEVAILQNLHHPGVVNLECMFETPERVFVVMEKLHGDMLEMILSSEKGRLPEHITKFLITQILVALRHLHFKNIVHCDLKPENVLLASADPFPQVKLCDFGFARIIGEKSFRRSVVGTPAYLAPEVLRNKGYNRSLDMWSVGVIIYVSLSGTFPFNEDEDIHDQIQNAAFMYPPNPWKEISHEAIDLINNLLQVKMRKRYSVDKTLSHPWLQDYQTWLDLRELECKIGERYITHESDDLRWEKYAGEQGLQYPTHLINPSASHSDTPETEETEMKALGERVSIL
HSV replic up = increases HSV replication in cells | AID 1956 | 220,000 compounds, 0.005% hits | HSV replication augmentation in cells, fold increase | maximum fold increase;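 active means peak rise of 1.5-fold or more in the series; tested in PC3 cells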;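 further: first round at 10 µM; read as green reporter fluorescence; hits show the peak of a series up to 25 µM; 1 = signal of infected wells without compound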
INS promoter inh = TRM-6 insulin promoter activity inhibition; inhibition, % at 2 µM; TRM-6 cells (human fetal islet line), insulin promoter-eGFP reporter, imaging; reporter expression induced with tamoxifen; 130,000 compounds, 0.9% hits;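 active means inhibition above the mean plus 3 SD, with well images judged a real hit on visual review, cut at about 60% in these data, passing the limit was not always enough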
RGS16-Gao HTS = regulators of human RGS16-Galphao interaction; AID 1441; 220,000 compounds, 0.38% hits; bead-based flow cytometry RGS16-Galphao binding, fluorescence; actives lie on both sides; binding response (% of control), % at 10 µM; O15492+P09471;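 active means below 25% or above 175%, edge rows of some plates excepted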;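 further: Galphao activated by GDP with aluminum fluoride before binding; 100% = wells without compound and 0% = beads without RGS; some results beyond the cut were filed as inactive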
GALR2 ag = activates the human galanin receptor 2; O43603; GALR2-expressing cells, agonist activation read-out; activation, %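 (tested at 5 µM)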; 140,000 compounds, 0.48% hits;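 active means above mean plus 3 SD of all compounds, about 5% in these data, not always enough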;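 further: 0% = vehicle buffer wells and 100% = reference agonist at full effect; tested in CHO reporter cells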
INS promoter inh cell count = also measured in INS promoter inh; calls as there; normalized cell count, %; measured here: cell count, toxicity; reference of the scale not given here;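 cells exposed to compound for 48 h; stained nuclei by imaging scaled within each plate; lower means fewer cells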
HSV replic up primary fold = second read-out of HSV replic up, no call of its own (marks repeat the call); fold increase; compound at 10 µM; measured here: primary screen fold increase 10 uM; tested in PC3 cells;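 GFP signal in the first replicate; 1 = infected wells without compound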
Numbers without * were called inactive; i = inactive; . = no result given.

cpd	SMILES	PKD1 inh	HSV replic up	HSV replic up primary fold	INS promoter inh
1	Cn1nnnc1SCCNCc1ccccc1OCc1ccc(F)cc1	7	i	1	.
2	COc1ccc(CCNC(=O)C(C(=O)c2ccccc2)n2ccccc2=O)cc1OC (stereo not drawn)	-3	i	0.94	.
3	O=C(/C=C/c1cccs1)Nc1scc(-c2ccccc2)c1C(=O)O	-1	i	0.88	7
4	CCC1CCCCN1C(=S)NC1CCCCC1 (stereo not drawn)	-12	i	1.1	25
5	COC(=O)[C@@H](NC(=O)NCc1ccco1)C(C)C	-5	i	1.1	-43
6	Cc1ccc(CNCC2CCCO2)s1 (stereo not drawn)	-4	i	0.99	0
7	COc1ccccc1NC(=O)N1CCCC(c2nc3c(nnn3Cc3ccc(C)cc3)c(=O)[nH]2)C1 (stereo not drawn)	-11	i	0.83	-36
8	Cc1ccc(C(=O)NCC(=O)OCC(=O)NCC(F)(F)F)cc1	-8	i	0.97	.
9	Cn1c(SCC(=O)NCc2ccc3c(c2)OCO3)nnc1-c1cc2ccccc2cc1O	0	i	0.81	0
10	CCCN(CCC)CC(=O)N1CC(=O)Nc2ccccc21	.	i	0.91	.
11	CCOc1ccc(CC(=O)Nc2c(C(N)=O)oc3ccc(Br)cc23)cc1OCC	5	i	0.84	.
12	O=C(Oc1ccc(Br)cc1)C1CC(=O)N(c2ccc(F)cc2)C1 (stereo not drawn)	-2	i	0.75	11

cpd	INS promoter inh cell count	RGS16-Gao HTS	GALR2 ag
1	.	107	.
2	.	106	-0.7
3	83	98	.
4	123	107	0.4
5	55	104	-4.0
6	73	98	-2.4
7	29	114	-0.4
8	.	101	.
9	106	105	-1.0
10	.	108	.
11	.	105	-2.6
12	73	101	-0.4

Next part
cpd	SMILES	PKD1 inh	HSV replic up	HSV replic up primary fold	INS promoter inh
13	CCOC(=O)Cc1nnc(NC(=O)C(CC)Sc2nc(C)cc(C)n2)s1 (stereo not drawn)	-4	i	0.9	.
14	CCOc1ccccc1C(=O)Nc1cc(OC)ccc1OC	-14	i	0.67	.
15	CCc1c(C)sc(NC(=O)CSc2nc3c(c(C(F)(F)F)n2)CCc2ccccc2-3)c1C#N	-5	i	0.8	31
16	C=CCN(CC=C)CCOc1cccc2ccccc12	-5	i	1.1	-50
17	CC(C)N(CCCNC(=O)c1ccc(N2CCCC2=O)cc1)Cc1ccccc1	-6	i	0.88	.
18	CCn1c(C)nc2cc(C(=O)NNS(=O)(=O)c3ccc(C)cc3C)ccc21	0	i	0.79	-32
19	CC(O)CN(C)CC/C=C1/c2ccccc2CSc2ccccc21 (stereo not drawn)	4	i	0.98	.
20	Cc1cccc(NC(=O)CN(C)S(=O)(=O)c2cnc[nH]2)c1	-11	i	0.86	38
21	Cc1ccc(NC(=O)C(OC(=O)c2ccccc2Cl)c2ccccc2)cc1Cl (stereo not drawn)	0	i	0.83	.
22	O=[N+]([O-])c1ccccc1/C=N/NC1=NS(=O)(=O)c2ccccc21	-1	i	0.87	45
23	COC(=O)c1ccccc1NC(=S)N(Cc1ccc2c(c1)OCO2)Cc1cc2cc(OC)ccc2[nH]c1=O	-11	i	0.82	.
24	Cc1nn(Cc2ccc(C(=O)NN)o2)c(C)c1Cl	.	i	1	.

cpd	INS promoter inh cell count	RGS16-Gao HTS	GALR2 ag
13	.	101	0.0
14	.	99	0.3
15	144	100	-3.4
16	121	102	-0.4
17	.	101	.
18	79	102	-1.0
19	.	102	0.1
20	123	97	-0.9
21	.	109	-0.5
22	111	120	.
23	.	100	-0.3
24	.	91	.

(next part)
cpd	SMILES	PKD1 inh	HSV replic up	HSV replic up primary fold	INS promoter inh
25	Cc1sc(NC(=S)NC(=O)C2CCCCC2)c(C(N)=O)c1C	-5	i	0.92	11
26	Nc1nnc(Cc2ccc(F)cc2)s1	.	i	1.1	.
27	CCN1C(=O)/C(=C\c2ccc(-c3ccc([N+](=O)[O-])cc3OC)o2)SC1=Nc1cccc(C(=O)O)c1	-1	i	1	.
28	Cc1nn(C)c(Cl)c1CN1CCN(CC(C)C)C(CCO)C1 (stereo not drawn)	0	i	1.1	.
29	O=C1c2ccccc2C(Nc2ccccc2)N1c1ccc(Cl)cn1 (stereo not drawn)	3	i	0.94	.
30	CC(C)[C@H](NC(=O)OCc1ccccc1)C(=O)OCC(=O)Nc1c(F)cccc1F	-4	i	1	.
31	COc1cccc(C2=NOC(C(=O)NCc3cccs3)C2)c1 (stereo not drawn)	-2	i	0.95	24
32	Cc1ccc([N+](=O)[O-])cc1NC(=O)CN1CCCCC1	3	i	1	17
33	O=C(Nc1ccc(Cl)cc1)N1CCC(CO)(Cc2ccccc2)CC1	2	i	0.8	7
34	COc1cc(CN2C(=S)NC(C)(C)CC2(C)O)cc(OC)c1 (stereo not drawn)	-15	i	1.1	-8
35	N/C(Cc1ccc([N+](=O)[O-])cc1)=N\OC(=O)COc1ccc2ccccc2c1	1	i	0.99	39
36	CCS(=O)(=O)CCSc1nc(C)cc(C)n1	-3	i	0.92	.

cpd	INS promoter inh cell count	RGS16-Gao HTS	GALR2 ag
25	53	59	-0.4
26	.	99	.
27	.	95	.
28	.	113	.
29	.	99	-1.4
30	.	101	0.0
31	91	102	-1.3
32	39	103	0.1
33	108	110	.
34	175	105	-1.1
35	104	100	-3.1
36	.	103	-1.7

The list continues.
cpd	SMILES	PKD1 inh	HSV replic up	HSV replic up primary fold	INS promoter inh
37	Cc1cc(/C=C(\C#N)C(=O)NC2CCCCCC2)c(C)[nH]1	-1	i	1.1	.
38	COc1ccc(C(=O)CSc2nnc(-c3cc4ccccc4cc3O)n2Cc2ccco2)cc1	-5	i	0.63	.
39	COCCCNC(=O)C(=O)N/N=C/c1ccc(OCC(=O)Nc2cccc(Cl)c2C)c(OC)c1	2	i	0.82	.
40	CCCCNC(=O)N1CCc2ccccc2C1	-7	.	.	-8
41	O=S(=O)(Nc1ccccc1N1CCCCC1)c1cccs1	.	i	1.1	.
42	Cc1ccc(C(=O)NCC(=O)OCC(=O)Nc2ccc(Cl)cc2C(F)(F)F)cc1C	10	i	0.77	5
43	CCCCn1c(CNC(=O)C23CC4CC(CC(C4)C2)C3)nnc1SCC(=O)Nc1nnc(C)s1	-10	i	0.99	.
44	Cc1ccc(N2CC(=O)N(c3ccc(C)cc3)CC2=O)cc1	.	i	1.1	.
45	N#Cc1nc(Cc2ccccc2)oc1N1CCC(Cc2ccccc2)CC1	1	i	0.95	-24
46	COc1cc(S(=O)(=O)N(Cc2ccc(C)cc2)Cc2ccco2)ccc1-n1cnnn1	3	i	0.87	-6
47	O=C(c1cc([N+](=O)[O-])cc([N+](=O)[O-])c1)N1CCN(C(=O)c2ccco2)CC1	.	i	0.93	.
48	COc1cc(NC(=O)c2ccccc2)c(OC)cc1NC(=O)CN1CCN(c2ccccn2)CC1	-12	i	0.96	-27

cpd	INS promoter inh cell count	RGS16-Gao HTS	GALR2 ag
37	.	91	-0.6
38	.	104	-0.9
39	.	126	-2.0
40	116	112	-0.3
41	.	99	.
42	149	107	-0.8
43	.	100	-4.0
44	.	105	.
45	141	105	-0.4
46	80	107	-0.5
47	.	104	.
48	95	96	0.5

Arranged by number of heavy atoms (smallest number first): 4 of the compounds above
cpd	SMILES	PKD1 inh	HSV replic up	HSV replic up primary fold	INS promoter inh
16	C=CCN(CC=C)CCOc1cccc2ccccc12	-5	i	1.1	-50
33	O=C(Nc1ccc(Cl)cc1)N1CCC(CO)(Cc2ccccc2)CC1	2	i	0.8	7
21	Cc1ccc(NC(=O)C(OC(=O)c2ccccc2Cl)c2ccccc2)cc1Cl (stereo not drawn)	0	i	0.83	.
48	COc1cc(NC(=O)c2ccccc2)c(OC)cc1NC(=O)CN1CCN(c2ccccn2)CC1	-12	i	0.96	-27

cpd	INS promoter inh cell count	RGS16-Gao HTS	GALR2 ag
16	121	102	-0.4
33	108	110	.
21	.	109	-0.5
48	95	96	0.5

Next part.
cpd	SMILES	PKD1 inh	HSV replic up	HSV replic up primary fold	INS promoter inh
49	COc1ccccc1-c1nnc2n1N=C(C)CS2	3	i	1.1	25
50	CCOC(=O)C1=C(CC)Nc2ccccc2N=C1NC(=O)Nc1ccccc1OC	0	i	0.89	-23
51	C=CCn1c(SCC(=O)c2ccc(OC)cc2)nnc1C(C)NC(=O)c1cccs1 (stereo not drawn)	-3	i	1	29
52	CC(=O)Nc1ccc(CN2CCN(Cc3ccc(C)cc3)C(CCO)C2)cc1 (stereo not drawn)	-6	i	1.2	.
53	O=c1[nH]c(=S)[nH]c2[nH]c(=S)[nH]c12	1	i	0.94	.
54	CCOc1ccccc1NC(=S)Nc1ccc2cn[nH]c2c1	.	i	0.87	.
55	NC1=NC2(CCCCC2)N=C(Nc2ccc(Br)cc2)N1	7	i	0.82	.
56	CCc1cccc(CC)c1NC(=O)C(NS(=O)(=O)c1cccs1)c1ccccc1 (stereo not drawn)	9	i	0.98	.
57	COC(=O)c1nc(-c2ccccc2)n[nH]1	0	i	0.76	-27
58	CCCCn1c(NC(=O)C2CCCCC2)nc2ccccc21	-4	i	0.86	-40
59	CCOC(=O)C1(Cc2ccccc2C)CCCN(C(=O)CCc2cccnc2)C1 (stereo not drawn)	-6	i	1	-71
60	COc1ccc(NC(=O)c2ccccn2)cc1	-1	i	0.93	15

cpd	INS promoter inh cell count	RGS16-Gao HTS	GALR2 ag
49	116	99	-1.1
50	150	103	-0.9
51	90	101	-1.4
52	.	95	.
53	.	48	.
54	.	98	.
55	.	119	-1.7
56	.	104	0.1
57	134	100	1.3
58	66	100	-2.7
59	120	114	.
60	119	107	-2.6

More results
cpd	SMILES	PKD1 inh	HSV replic up	HSV replic up primary fold	INS promoter inh
61	CCn1c2ccccc2c2cc(NC(=S)N3CCOCC3)ccc21	-3	i	0.72	0
62	CCN1CCN(CCCN(Cc2ccco2)C(=S)Nc2ccc(Cl)c(C)c2)CC1	1	i	1	.
63	COc1cc(OC)c(NC2=NCCCCC2)cc1Cl	14	i	0.99	.
64	CCOC(=O)C1=C(CSc2nc3ccccc3s2)NC(=O)NC1c1cc(C)ccc1C (stereo not drawn)	-3	i	0.9	.
65	Cc1nn(-c2ccccc2)c2sc(C(=O)NC3CCCCC3)cc12	7	i	0.89	26
66	CCOc1ccccc1OCCN1CCC(Cc2ccccc2)CC1	-15	i	0.79	-19
67	CCNC(=S)/C(=C(/[O-])c1ccc([N+](=O)[O-])cc1)[n+]1ccccc1	.	i	0.91	.
68	CC(C)(C)c1ccc(S(=O)(=O)Nc2cccc(C3OCCCO3)c2)cc1	4	i	0.92	31
69	CCOC(=O)C1CNc2cc(S(=O)(=O)CC)ccc2O1 (stereo not drawn)	-3	i	0.92	11
70	Cc1ccc(S(=O)(=O)NCCC(=O)NCCN2CCCCCC2)cc1	3	i	0.98	-6
71	Cc1ccc(C)c(C(=O)CSc2n[nH]c(-c3ccncc3)n2)c1	4	i	0.87	19
72	COc1ccc(OC)c(S(=O)(=O)N2CCCC(C)C2)c1 (stereo not drawn)	-2	i	1	31
73	NS(=O)(=O)c1ccc(NC(=O)c2cc(Cl)ccc2Cl)cc1	4	i	1	61
74	CCOc1ccc(NS(=O)(=O)c2ccc(C(=O)N3CCN(c4ncccn4)CC3)cc2)cc1	3	i	1	18

cpd	INS promoter inh cell count	RGS16-Gao HTS	GALR2 ag
61	178	99	-2.4
62	.	96	.
63	.	101	-1.5
64	.	101	-0.4
65	131	100	-1.7
66	103	109	-0.6
67	.	95	.
68	98	109	-1.1
69	120	87	.
70	130	96	-1.4
71	151	102	-4.0
72	129	174	-1.9
73	101	103	.
74	57	104	.
